Bioassay records: PubChem, National Center for Advancing Translational Sciences (NCATS)
Six1-Eya2 inh – blocks human Six1 binding to Eya2 | AlphaScreen GST-Six1/His-Eya2 binding, biochemical; active compounds read low; control for the full effect not named in the record | activity change, % (test concentration not listed) | hit rate 0.56% among 360,000 | AID 651725; in the data active = activity change below about -65%; inconclusive = about -30% to -65%; inactive = above about -30%; note: % is set by controls: 0 for no effect and ±100 for the full control effect
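AlphaScreen with GST-Six1 and His-Eya2 (5X mix: 250 nM and 500 nM), glutathione donor and nickel acceptor beads; buffer 50 mM Tris pH 8.0, 300 mM NaCl, 1 mM TCEP; 1 h at 37 C in the dark.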
CtBP-E1A inh – blocks the CtBP interaction with E1A; AlphaScreen GST-E1A/His-CtBP binding, 1536-well; active compounds read low; control for the full effect not named in the record; activity change, % (concentration not given with the values); hit rate 0.49% among 340,000; AID 651724; in the data active means activity change below about -65%; inconclusive means about -30% to -65%; inactive means above about -30%; note: % is set by controls: 0 for no effect and ±100 for the full control effect
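Homogeneous bead-based format: GST-tagged E1A captured on glutathione donor beads, His-tagged CtBP on nickel acceptor beads; compounds precede bead addition by 2 h at 37 °C.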
TRPML1 agonist – activates the human TRPML1 channel. activation, % (no concentration beside the values). Q9GZU1. TRPML1-expressing cells, Ca2+ dye fluorescence, FDSS; host cell line not named in the record; reference of the full effect not given here. hit rate 0.12% among 410,000. AID 624414; in the data active = activation above about 50%; inconclusive = about 30% to 50%; inactive = below about 30%; note: 0% is about no effect; the text of the record puts the active cut at 80%
Target sequence (Q9GZU1 whole entry, looked up): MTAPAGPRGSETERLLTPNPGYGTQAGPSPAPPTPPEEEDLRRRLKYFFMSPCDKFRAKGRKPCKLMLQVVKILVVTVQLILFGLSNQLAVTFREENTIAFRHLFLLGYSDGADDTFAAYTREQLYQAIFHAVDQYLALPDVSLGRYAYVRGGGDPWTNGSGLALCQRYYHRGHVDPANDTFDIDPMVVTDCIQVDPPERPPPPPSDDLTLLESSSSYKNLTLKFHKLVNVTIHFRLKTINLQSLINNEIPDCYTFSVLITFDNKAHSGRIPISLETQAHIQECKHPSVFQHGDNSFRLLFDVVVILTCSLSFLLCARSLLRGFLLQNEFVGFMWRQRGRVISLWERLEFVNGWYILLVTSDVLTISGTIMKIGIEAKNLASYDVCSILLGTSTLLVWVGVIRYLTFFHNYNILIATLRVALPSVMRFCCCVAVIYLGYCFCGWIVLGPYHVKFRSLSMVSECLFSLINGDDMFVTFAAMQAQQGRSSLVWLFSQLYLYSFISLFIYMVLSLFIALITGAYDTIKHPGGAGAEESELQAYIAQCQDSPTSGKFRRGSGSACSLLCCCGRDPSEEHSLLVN
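Kinetic FDSS Ca2+ read in Tet-induced TRPML1-DL cells (ABD Ca8 dye plus quencher, 45-90 min RT loading): baseline, then compound, then 110 s agonist window; EC80 agonist 54-4 at 4uM final added afterwards for a 110 s antagonist window.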
D2 PAM – positive allosteric modulators of human D2 dopamine receptor. DiscoveRx D2 beta-arrestin cells, luminescence, 90 min; 100% = 57 uM dopamine signal. potentiation, % (test concentration not listed). P14416. hit rate 0.23% among 360,000. AID 624464; active = potentiation of 50% or more; inconclusive = 30% to 50%; inactive = 30% or less;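 note: compound concentration not given in the record; tested on top of an EC20 dose of dopamine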
Target sequence (P14416 whole entry, looked up): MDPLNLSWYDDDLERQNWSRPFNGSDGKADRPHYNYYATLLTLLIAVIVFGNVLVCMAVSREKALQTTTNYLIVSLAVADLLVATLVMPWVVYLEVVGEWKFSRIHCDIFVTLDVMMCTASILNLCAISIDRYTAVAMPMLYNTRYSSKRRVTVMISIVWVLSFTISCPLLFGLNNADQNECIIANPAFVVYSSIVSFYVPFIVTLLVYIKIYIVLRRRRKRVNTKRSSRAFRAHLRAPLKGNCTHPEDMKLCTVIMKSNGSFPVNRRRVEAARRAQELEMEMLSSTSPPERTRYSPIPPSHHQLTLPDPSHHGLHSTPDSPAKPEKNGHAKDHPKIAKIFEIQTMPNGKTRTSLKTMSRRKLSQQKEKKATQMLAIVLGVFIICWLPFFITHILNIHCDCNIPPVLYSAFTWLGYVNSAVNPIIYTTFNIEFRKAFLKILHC
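D2 cells co-treated with compound plus 50 nM dopamine (EC20) for 90 min at 37 deg C to detect potentiation. Beta-arrestin recruitment was read as enzyme-fragment luminescence after 1 h at ambient temperature. Full response was set by 57 uM dopamine.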
PINK1 expr mod – changes PINK1 expression | PINK1 immunofluorescence, high-content cytometry, 24 h | Potency, µM (doses to about 76.6 µM), for the others: top-dose activation (PINK1 increase), most hits filed as activators | hit rate 0.2% among 410,000; active = well fitted activation curve with a large enough effect; inconclusive = small, poorly fitted or top-dose-only effect; inactive = flat fitted curve, though single readings scatter; cell line not stated here;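 note: potency is the fitted concentration of half-maximal effect; % of control where 0% means no effect; nearly all actives have a fitted effect of over 65% in size; a mitochondrial uncoupler was the plate control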
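Fluorescence from anti-PINK1 antibody, together with nuclear and cell stains, was scanned on a laser-scanning cytometer. Before staining, stable-line cells were incubated 24 hours with compounds at 5 concentrations; primary antibody 12 h at 10 degrees C.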
D2 agonist – activates the human D2 dopamine receptor | P14416 | DiscoveRx PathHunter D2 beta-arrestin, luminescence, 90 min; 100% = 57 uM dopamine signal | activation, % (no concentration beside the values) | hit rate 0.084% among 360,000; in the data active = activation above about 40%; inconclusive = about 15% to 40%; inactive = below about 15%; note: compound concentration not given in the record; the text of the record calls up to 30% inactive
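Agonist mode: compounds alone added to overnight-plated D2 PathHunter cells for 90 min at 37 C, with 57 uM final dopamine (EC100) defining full response. Beta-arrestin recruitment detected by chemiluminescent reagent, read after 1 h at ambient temperature.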
* marks the source's active call; other numbers are inactive results; ? = inconclusive; · = not tested or not shown; & = joins results of further samples; [ ] = remark or other dose.

Each structure is followed by: Six1-Eya2 inh	CtBP-E1A inh	TRPML1 agonist	D2 PAM	PINK1 expr mod	D2 agonist
CC1CCc2nn(CC(=O)NCCN3CCOCC3)cc2C1 (stereo unspecified)
    2.4	2.8	0.3	2.8	3.3%	6.0
O=C(Cn1cnc2ccccc2c1=O)Nc1nnc(SCc2ccc(Cl)cc2)s1
    3.2	·	-0.3	-10.7	-0.5%	-4.8
CC(C)(C)NC(=O)C(c1ccccn1)N(C(=O)C1CSC(=O)C1)c1cccc(F)c1 (stereo unspecified)
    -2.9	12.8	0.3	-0.7	-0.9%	2.9
COc1ccccc1CNC(=O)CN1C(=O)NC(C)(c2ccc(C(C)(C)C)cc2)C1=O (stereo unspecified)
    0.5	-0.5	-0.3	-1.5	-0.8%	4.7
CN(C)C(=O)CSc1nc2cc(S(=O)(=O)N3CCOCC3)ccc2o1
    0.1	0.1	0.8	-0.1	1.6%	-0.1
COc1ccccc1CC(=O)Nc1ccc2[nH]ncc2c1
    -5.3	0.6	0.4	-20.1	2.6%	-2.5
Cc1ccccc1-c1noc(CCC(=O)NCCc2ccccc2)n1
    3.7	·	-0.7	-6.6	1.8%	-7.6
N#C/C(=C\c1cn(CCOc2ccccc2F)c2ccccc12)C(=O)NCc1cccs1
    4.9	-1.4	0.0	10.1	8.1%	-0.6
Cc1c(NC(=O)CSc2nnc(C(C)N(C)C)n2-c2ccccc2)c(=O)n(-c2ccccc2)n1C (stereo unspecified)
    12.1	-8.0	-0.2	-18.6	-1.8%	-3.8
CC(NC(=O)Cc1ccccc1)C(c1ccccc1)N1CCOCC1 (stereo unspecified)
    25.2	-0.1	1.2	5.5	-0.8%	5.5
O=C(Nc1nnc(C2CC2)o1)c1ccc(S(=O)(=O)N2CCc3ccccc3C2)cc1
    2.9	·	0.7	-4.3	1.7%	1.5
CCCN(C(=O)c1ccc2c(SCC(=O)O)c3c(nc2c1)CCC3)c1cccc(C)c1
    -1.4	-1.4	0.5	-1.0	-2.0%	-4.4
CCc1cccc(NC(=O)c2cccc3c2C(=O)N(CC2CCCO2)C3)c1 (stereo unspecified)
    -17.1	-12.8	1.5	-0.2	4.0%	-0.9
C/C(=N\Nc1ccccc1C(=O)O)c1ccncc1
    ?	23.3	-0.5	9.9	0.4%	0.5
Cc1ccc(-n2c(SCC(N)=O)nnc2-c2cnccn2)cc1
    -0.1	-2.0	2.5	-2.8	-2.0%	-0.8
O=C(O)c1cccc2c1C(=O)N(C1CCCC1)C2
    4.4	-2.7	-0.2	-1.0	0.3%	-0.6
CN(C)S(=O)(=O)c1ccc(C(=O)Oc2ccccc2)cc1
    13.9	-3.2	0.8	-6.6	4.0%	1.5
O=C(CN1CCN(Cc2ccccc2)CC1)NCc1ccc(Cl)cc1
    -6.0	-2.0	0.9	-7.7	0.4%	3.6
CCn1cc(C(=O)N2CC(C)CC(C)C2)c(=O)c2cc(S(=O)(=O)N3CCCC3)ccc21 (stereo unspecified)
    -0.3	-12.9	-0.3	-10.3	1.9%	-5.7
CC(=O)c1ccc(OCCCC(=O)Nc2cc(Cl)ccc2-n2cncn2)cc1
    4.6	0.7	0.7	-21.7	1.7%	-2.0
CCC(=O)Nc1nnc(SCC(=O)NC2CCCC2)s1
    0.4	0.2	0.7	-0.6	3.6%	-3.8
Cc1ccccc1NC(=O)C(NC1CCCCC1)C(C)C (stereo unspecified)
    -2.4	0.2	0.7	-1.9	1.2%	0.1
Fc1ccccc1NC(=S)N1CCN(c2ccccn2)CC1
    -1.0	1.1	-0.3	4.9	1.6%	-1.4
CCOC(=O)CSC1=C(C#N)C(c2sccc2C)C(C(C)=O)=C(C)N1 (stereo unspecified)
    11.3	12.3	-0.2	-11.8	?	-0.3
CCOc1cc(C2Nc3ccccc3NC3=C2C(=O)CC(C)(C)C3)ccc1O (stereo unspecified)
    0.2	·	2.1	-0.9	0.2%	?
Cc1ccc(-c2cc(C(F)(F)F)n3nc(C(=O)NCCCn4ccnc4)cc3n2)cc1C
    -16.3	0.1	2.4	-2.3	?	-0.3
CCOc1ccc(CCNC(=O)C2CC(=O)N(c3ccccc3OCC)C2)cc1OCC (stereo unspecified)
    -0.5	0.9	-0.3	-0.3	3.3%	-1.7
C=CCNC(=S)NC(CC(=O)OC)c1ccc2c(c1)OCO2 (stereo unspecified)
    -5.2	-2.7	-0.4	1.9	1.4%	-4.0
O=C(NCC(=O)N(c1ccccc1F)C(C(=O)NC1CCCC1)c1ccco1)c1ccco1 (stereo unspecified)
    2.2	-1.3	-0.9	0.8	0.8%	3.6
Cc1ccc2cc(CN(Cc3cccs3)Cc3nnnn3CC3CCCO3)c(=O)[nH]c2c1 (stereo unspecified)
    -3.9	4.0	-0.6	-8.0	-4.8%[38.3 µM]	-1.5
CC1(C(=O)NS(=O)(=O)c2ccccc2Cl)CCN1C(=O)C1(c2ccccc2)CC1 (stereo unspecified)
    0.0	6.4	-0.4	4.3	1.1%	4.5
O=C(CCc1nnc(-c2ccccc2)o1)NC1CCCCC1
    3.2	5.2	-0.5	-6.9	1.3%	-4.9
Cc1ccc(N(CC(=O)NCc2ccccn2)S(=O)(=O)c2ccccc2)cc1Cl
    0.8	-4.4	2.3	-12.0	-2.7%	-2.5
COc1ccc(S(=O)(=O)NC(=O)C2(C)CCN2C(=O)Cc2cccc3ccccc23)cc1 (stereo unspecified)
    2.4	3.7	-0.4	-2.2	3.0%	-7.1
Cc1ccc(Cl)c(OCC(=O)Nc2sc(C)c(C)c2C#N)c1
    -4.0	11.0	0.1	-4.1	5.1%	-4.1
COc1ccc(N(C)S(=O)(=O)c2cccc(C(=O)OC(C(=O)Nc3cc(C)cc(C)c3)c3ccccc3)c2)cc1 (stereo unspecified)
    5.3	-2.9	1.6	-6.0	-1.2%	-0.9
COC(=O)[C@@H](NC(=O)N1CCC(Cc2ccccc2)CC1)C(C)C
    7.5	4.7	0.4	-3.9	3.6%	-2.6
CCOC(=O)C1=CCN(S(=O)(=O)c2ccc(F)cc2)C1c1ccccc1 (stereo unspecified)
    6.5	3.7	2.5	1.4	0.1%	-2.3
CC(=O)c1cccc(NC(=O)c2ccoc2C)c1
    -1.8	-6.3	0.5	-5.1	-1.6%	7.2
O=C(CNS(=O)(=O)c1ccccc1)Nc1ccc2c(c1)OCO2
    1.6	3.6	0.0	3.3	-0.5%	-0.3
O=C(NCc1ccco1)c1sc2cc(F)ccc2c1Cl
    -11.5	6.6	1.1	-6.3	·	-1.9
CCc1ccc(NC(=O)c2cc(-c3cccs3)on2)cc1
    5.6	·	0.0&0.3	-16.9	1.4%&1.7%	-1.6
OCCN1CCN(CC/C=C2/c3ccccc3Sc3ccc(C(F)(F)F)cc32)CC1
    -25.8	-19.0	-0.1	-28.9	-0.6%	2.0
CCOC(=O)c1nn(-c2ccc([N+](=O)[O-])cc2)cc1O
    -4.5	·	-0.3	-19.7	3.3%	-5.0
CCCc1nc(SCC(=O)N2CCOCC2)c2c(C)c(C)sc2n1
    -17.4	-5.6	1.8	-0.7	2.9%	2.8
N#Cc1ccccc1NC(=O)C1CC(=O)N(c2ccc3c4c(cccc24)CC3)C1 (stereo unspecified)
    1.0	0.4	0.2	-1.8	13.3%	0.5
Fc1ccccc1/C=N/n1cnnc1
    6.1	8.1	-0.3	1.5	5.7%[38.3 µM]	-2.5
O=C(NC1CCCc2ccccc21)c1cccc(F)c1 (stereo unspecified)
    10.8	-7.8	0.1	-3.3	-1.4%	1.0
Cc1ccccc1CNC(=O)C1CCN(c2nnc(N3CCCC3=O)s2)CC1
    -1.4	-12.9	-0.5	-5.7	-0.7%	-4.9
Cc1noc(C)c1N=Nc1ccc(Br)cc1C(=O)O
    7.4	-0.1	0.4	-6.2	-0.6%	-2.2
O=C(NCCN1CCOCC1)N1CCOCC1
    2.0	-8.6	0.1	-12.8	0.3%	0.7
Cn1c(=O)n(C)c2cc(NC(=O)CSc3nc4ccccc4c(=O)[nH]3)ccc21
    -1.0	-8.9	0.1	-11.5	1.8%	-1.3
Cc1ccc(-c2ccc(C3C(C#N)=C(N)Oc4n[nH]c(C)c43)o2)cc1 (stereo unspecified)
    -14.5	-18.4	9.9	-14.0	-2.9%	-2.9
CCn1ncc(/C=C2/SC(=S)NC2=O)c1C
    0.4	3.1	0.8	-13.3	-0.6%	-2.1
CCCNC(=O)c1ccccc1NC(=O)c1ccccc1N(C)S(C)(=O)=O
    5.0	1.3	-1.0	2.4	3.4%	-3.7
CCOc1cccc(C(=O)Nc2cccc(C(=O)NCC(C)C)c2)c1
    0.8	-11.8	1.0	-7.0	0.8%	-4.0
CCCCNC(=O)c1cc(C)nn1-c1ccccc1
    0.0	-4.6	-0.4	-5.6	2.5%	-5.2
Cn1ccnc1SCC(=O)c1c(N)n(C)c(=O)n(C)c1=O
    5.1	-0.9	0.0	-5.3	0.9%	1.8
Cc1cc(C)cc(C(=O)NC(CC(N)=O)c2ccc(NC3CCCCCCCCCCC3)c([N+](=O)[O-])c2)c1 (stereo unspecified)
    3.4	-2.1	-0.2	-17.5	0.5%	-4.3
Cc1ccc(OCc2nc(C#N)c(N3CCN(Cc4ccccc4)CC3)o2)cc1
    ?	-28.2	0.9	-7.7	0.3%	0.1

(next part)
Each structure is followed by: Six1-Eya2 inh	CtBP-E1A inh	TRPML1 agonist	D2 PAM	PINK1 expr mod	D2 agonist
O=C(COc1ccc2ccccc2c1)Nc1nccs1
    -4.1	-0.8	-1.5	-34.3	0.5%	-4.2
Cn1c(=O)n(C)c(=O)n(CC(=O)N2CCCCC2)c1=O
    0.7	5.6	-0.7	-16.0	-1.8%	-3.9
c1ccc(-n2ncc(-c3nn[nH]n3)n2)cc1
    -5.1	2.1	-1.0	-7.7	-1.6%	0.2
COc1ccc(CNC(=O)CCCC2=NS(=O)(=O)c3ccccc3N2)cc1
    3.1	-18.3	0.1	-18.4	-0.1%	5.1
O=C(N[C@@H](Cc1ccccc1)C(=O)N1CCN(S(=O)(=O)c2ccccc2F)CC1)c1ccco1
    -14.8	-1.0	0.9	-10.6	0.2%	0.1
Cc1cccc(N2CC(C(=O)Nc3nnc(SCCN4CCOCC4)s3)CC2=O)c1 (stereo unspecified)
    -8.1	-2.4	0.5	-14.4	2.2%	3.7
CCOc1ccccc1N1C(=O)c2cccnc2C1=O
    0.0	-15.2	-1.2	-9.3	2.3%	7.8
C=CCSc1nc(C)c2cc(C)cc(C)c2n1
    37.7	32.4	0.7	?	2.9%	-3.3
O=C(CCS(=O)(=O)c1ccccc1)Nc1ccccn1
    9.3	4.0	0.3	-2.3	0.0%	0.1
O=C(c1ccoc1)N1CCN(c2cc(-c3ccco3)nc3cc(-c4ccccc4)nn23)CC1
    0.0	6.7	-0.2	10.3	0.4%	5.3
CCN(CC)S(=O)(=O)c1ccc(N/N=C/c2ccc(O)cc2)nc1
    -7.8	1.9	0.2	-0.9	2.4%	1.1
CCOc1ccc(NS(=O)(=O)c2ccc(-c3coc(C)n3)cc2)cc1
    1.9	-1.3	-0.7	-20.1	0.1%	0.7

Not a hit list. Share with any hit: about 1.3%.
